HSV augment – enhancers of HSV replication in host cells, fold increase, host cell viability; HSV replication augmentation in cells; maximum fold increase; 220,000 tested, 0.005% active; AID 1956, 2009;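 active = peak rise of 1.5-fold or more in the series; tested in PC3 cells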;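 note: first round at 10 µM; read as green reporter fluorescence; hits show the peak of a series up to 25 µM; 1 = signal of infected wells without compound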
INS promoter inh – inhibitors of insulin promoter-driven GFP, primary screen, imaging, TRM-6 cells (human fetal islet line), eGFP reporter, cell count; reporter expression induced with tamoxifen; inhibition, % at 2 µM; 130,000 tested, 0.9% active;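 active = inhibition above the mean plus 3 SD, with well images judged a real hit on visual review, cut at about 60% in these data, passing the limit was not always enough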
PKD1 kinase inh – inhibitors of human PKD1 kinase, biochemical, fluorescence polarization | Serine/threonine-protein kinase D1 (Homo sapiens), Q15139 | PKD1 kinase fluorescence polarization assay | inhibition, %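 (about 10 µM by stock and volumes)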 | 200,000 tested, 0.056% active;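 active = inhibition of 50% or more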;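 note: controls were vehicle for no effect and a reference inhibitor for full effect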
Target sequence (Q15139 whole entry, looked up): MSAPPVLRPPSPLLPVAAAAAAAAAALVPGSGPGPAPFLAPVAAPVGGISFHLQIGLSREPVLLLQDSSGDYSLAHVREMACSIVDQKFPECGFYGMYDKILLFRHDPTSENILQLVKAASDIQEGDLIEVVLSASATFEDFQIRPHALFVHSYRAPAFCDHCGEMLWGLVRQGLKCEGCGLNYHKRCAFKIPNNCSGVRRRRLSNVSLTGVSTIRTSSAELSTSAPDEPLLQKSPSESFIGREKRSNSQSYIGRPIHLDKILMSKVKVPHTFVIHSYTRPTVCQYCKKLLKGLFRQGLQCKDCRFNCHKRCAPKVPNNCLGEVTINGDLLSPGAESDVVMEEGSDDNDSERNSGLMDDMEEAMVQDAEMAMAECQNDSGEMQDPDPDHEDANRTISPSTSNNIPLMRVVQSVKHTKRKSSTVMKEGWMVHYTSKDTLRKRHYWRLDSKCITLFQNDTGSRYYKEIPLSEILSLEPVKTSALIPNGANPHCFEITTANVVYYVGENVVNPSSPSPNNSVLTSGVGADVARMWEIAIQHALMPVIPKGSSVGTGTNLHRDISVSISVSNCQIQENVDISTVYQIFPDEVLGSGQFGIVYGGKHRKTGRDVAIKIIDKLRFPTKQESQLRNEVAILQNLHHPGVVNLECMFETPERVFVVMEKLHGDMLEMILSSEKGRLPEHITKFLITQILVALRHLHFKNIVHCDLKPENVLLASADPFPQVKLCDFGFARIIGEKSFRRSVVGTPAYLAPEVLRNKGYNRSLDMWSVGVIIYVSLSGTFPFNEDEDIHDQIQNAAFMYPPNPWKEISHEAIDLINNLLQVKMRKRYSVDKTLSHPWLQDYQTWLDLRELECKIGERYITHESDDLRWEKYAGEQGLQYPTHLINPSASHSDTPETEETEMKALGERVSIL
GALR2 ag – GALR2 receptor agonists, primary screen, cell-based | GALR2-expressing cells, agonist activation read-out | activation, %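 (tested at 5 µM)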 | 140,000 tested, 0.48% active | AID 803, 2007;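 active = above mean plus 3 SD of all compounds, about 5% in these data, not always enough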;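 note: 0% = vehicle buffer wells and 100% = reference agonist at full effect; tested in CHO reporter cells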
RGS16-Gao – modulators of RGS16 binding to Galphao, primary screen, biochemical, human proteins, multiplexed bead flow cytometry | Regulator of G-protein signaling 16 (Homo sapiens) + Guanine nucleotide-binding protein … | bead-based flow cytometry RGS16-Galphao binding, fluorescence; actives lie on both sides | binding response (% of control), % at 10 µM | 220,000 tested, 0.38% active | AID 1441, 2008;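 active = below 25% or above 175%, edge rows of some plates excepted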;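 note: Galphao activated by GDP with aluminum fluoride before binding; 100% = wells without compound and 0% = beads without RGS; some results beyond the cut were filed as inactive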
INS promoter inh cell count – also measured in INS promoter inh; calls as there; normalized cell count, %; measured here: cell count, toxicity; reference of the scale not given here;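 cells exposed to compound for 48 h; stained nuclei by imaging scaled within each plate; lower means fewer cells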
HSV augment primary fold – also measured in HSV augment; calls as there; fold increase; compound at 10 µM; measured here: primary screen fold increase 10 uM; tested in PC3 cells;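 GFP signal in the first replicate; 1 = infected wells without compound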
An asterisk follows results filed as active; i = inactive; x = no result given.

structure | HSV augment | HSV augment primary fold | INS promoter inh | INS promoter inh cell count | PKD1 kinase inh | GALR2 ag | RGS16-Gao
COc1ccc(CNC(=O)C(c2ccncc2)N(C(=O)Cc2cccs2)c2ccccc2C)cc1 (centres undefined) | i | 1.3 | -29 | 54 | -13 | 0.4 | 105
C(=C\c1ccccc1)/C=N/Nc1ccc2nncn2n1 | i | 1.1 | x | x | x | x | 96
O=c1c2c(-c3ccccc3)csc2ncn1/N=C/c1ccc(O)c([N+](=O)[O-])c1 | i | 1.1 | x | x | 7 | x | 104
C=CCc1ccc(OCCOc2ccc(/C=N/n3cnnc3)cc2OCC)c(OC)c1 | i | 0.96 | x | x | -3 | -1.2 | 101
COc1ccc(NC(=O)c2c(NC(=O)CNCc3ccco3)sc3c2CCC3)c(OC)c1 | i | 0.99 | 14 | 128 | -11 | -1.4 | 83
CCn1cc(C(c2ccccc2)C(C(C)=O)[N+](=O)[O-])c2ccccc21 (centres undefined) | i | 0.96 | x | x | x | x | 102
COc1ccc(-c2csc(Nc3cccnc3)n2)cc1 | i | 0.87 | 45 | 127 | -7 | -0.8 | 104
COc1ccc(OC)c(NC(=O)CCCN2C(=S)NC(C)(C)CC2C)c1 (centres undefined) | i | 0.98 | 5 | 55 | -4 | -1.7 | 21
Cc1ccc(NC(=O)c2ccc(NCCN)c([N+](=O)[O-])c2)cc1 | i | 0.84 | -13 | 113 | -11 | 0.6 | 101
CC1(C)CC(=O)C2=C(C1)c1c(ccc3ccccc13)NC2c1ccco1 (centres undefined) | i | 0.91 | -193 | 159 | -10 | -2.1 | 69
CN(c1ccc(C(=O)Nc2ccccc2C(F)(F)F)cc1)S(C)(=O)=O | i | 0.94 | 0 | 103 | -2 | 2.1 | 45
Clc1cccc(-c2ccnc3nc(-n4cccc4)nn23)c1 | i | 1.2 | -9 | 75 | -5 | 0.4 | 108
COc1ccc(Cn2cccc(NC(=O)Nc3cccc(C#N)c3)c2=O)cc1 | i | 0.95 | 42 | 56 | 3 | -1.1 | 99
OCC1(Cc2ccccc2)CCN(Cc2ccccn2)CC1 | i | 0.71 | 0 | 90 | -3 | x | 99
N#Cc1cnc(SCC(=O)c2ccccc2)nc1N | i | 0.85 | 43 | 56 | -2 | 0.6 | 104
O=C(NCc1ccccc1)c1cccc(COc2ccc(Cl)cc2)c1 | i | 0.99 | x | x | 0 | -1.0 | 114
N#C/C(=C\c1cc([N+](=O)[O-])ccc1Cl)C(N)=O | i | 0.87 | x | x | 5 | x | 104
CN1CCN(NC(=S)NC(C)(C)CC(C)(C)C)CC1 | i | 1 | 64 | 59 | -3 | x | 110
Cc1ccc2c(Cl)cc(Cl)c(OCC(=O)NC(=O)NCc3ccco3)c2n1 | i | 1 | -13 | 142 | -17 | -1.1 | 5
COCCN(Cc1cn(C)nc1-c1ccccc1F)C(C)C | i | 0.88 | x | x | 2 | x | 99
Cc1ccccc1CSc1nnc(-c2cccs2)n1Cc1ccco1 | i | 0.8 | -149 | 34 | -2 | -2.4 | 101
CCC(=O)N1CCN(c2ccccc2NC(=O)c2ccc(-c3cccc([N+](=O)[O-])c3)o2)CC1 | i | 0.94 | 0 | 91 | -4 | 1.5 | 96
Cc1ccc(-c2csc3ncnc(N4CCN(C(=O)c5ccccc5)CC4)c23)cc1 | i | 0.98 | 0 | 141 | -5 | 1.2 | 93
Cn1cc(CCC(=O)NCc2ccc3c(c2)OCO3)c2ccccc21 | i | 0.96 | -1 | 83 | 6 | -0.4 | 105
CCOC(=O)c1cn(CC)c2cc(N3CCSCC3)c(F)cc2c1=O | i | 1 | x | x | -6 | 0.7 | 87
CC(NCCN(C)C)C(=O)C12CC3CC(CC(C3)C1)C2 (centres undefined) | i | 1 | x | x | x | x | 102
OCCN(CCO)c1ncnc2c1sc1nc(N3CCOCC3)c3c(c12)CCCC3 | i | 0.74 | 27 | 94 | -3 | 0.9 | 110
O=S(=O)(CCN(CCS(=O)(=O)C(F)(F)F)CC1CCCO1)C(F)(F)F (centres undefined) | i | 0.91 | x | x | -4 | -0.3 | 90
CN1CCc2nc3ccccc3c(C(=O)OCC(=O)N(CCC#N)c3ccccc3)c2C1 | i | 1 | x | x | -4 | x | 103
Fc1cc2ncn(Cc3ccccc3)c2cc1F | i | 0.99 | x | x | -3 | -0.9 | 97
O=C(Nc1ccc(F)cc1)C1CC(=O)n2cnnc2N1 (centres undefined) | i | 1 | x | x | 2 | x | 99
CCSc1ccc(C(=O)NCC(=O)O)cc1 | i | 0.91 | x | x | x | x | 94
CCCC(c1nnnn1C(C)(C)CC)N(Cc1ccco1)Cc1cc2ccc(OC)cc2[nH]c1=O (centres undefined) | i | 0.97 | 3 | 145 | -7 | -1.9 | 105
COc1ccc(C(=O)Nc2nnc(C(F)(F)F)s2)cc1 | i | 0.85 | -24 | 128 | -10 | -1.9 | 110
Cc1cc(C(=O)NCc2cccs2)cs1 | i | 0.92 | -383 | 121 | -8 | -1.6 | 95
Cc1ccc(NC(=O)c2nnn(-c3cc(C)cc(C)c3)c2N)cc1 | i | 0.96 | x | x | -4 | 0.6 | 100
CN(C(=O)Nc1ccccc1)C1CCS(=O)(=O)C1 (centres undefined) | i | 0.85 | -337 | 10 | -1 | -1.0 | 93
O=[N+]([O-])c1cc(Cl)cc(/C=N/NC(=S)Nc2cc(S(=O)(=O)N3CCOCC3)ccc2Cl)c1O | i | 1 | x | x | x | x | 94
CN(C)/C=C(/C#N)C(=O)c1cccc(Oc2ccc(C(C)(C)C)cc2)c1 | i | 0.9 | -4 | 191 | -4 | 0.6 | 99
O/N=C/c1ccnc(SCc2ccccc2)n1 | i | 1.3 | x | x | x | x | 104

A draw from above in order of molecular weight, rising.
structure | HSV augment | HSV augment primary fold | INS promoter inh | INS promoter inh cell count | PKD1 kinase inh | GALR2 ag | RGS16-Gao
Cc1cc(C(=O)NCc2cccs2)cs1 | i | 0.92 | -383 | 121 | -8 | -1.6 | 95
O/N=C/c1ccnc(SCc2ccccc2)n1 | i | 1.3 | x | x | x | x | 104
Cc1ccc(NC(=O)c2nnn(-c3cc(C)cc(C)c3)c2N)cc1 | i | 0.96 | x | x | -4 | 0.6 | 100
CCCC(c1nnnn1C(C)(C)CC)N(Cc1ccco1)Cc1cc2ccc(OC)cc2[nH]c1=O (centres undefined) | i | 0.97 | 3 | 145 | -7 | -1.9 | 105
O=[N+]([O-])c1cc(Cl)cc(/C=N/NC(=S)Nc2cc(S(=O)(=O)N3CCOCC3)ccc2Cl)c1O | i | 1 | x | x | x | x | 94

(next part)
structure | HSV augment | HSV augment primary fold | INS promoter inh | INS promoter inh cell count | PKD1 kinase inh | GALR2 ag | RGS16-Gao
COc1ccc(/C=c2\s/c(=C\C(=O)C(C)(C)C)[nH]c2=O)cc1O | i | 0.8 | x | x | x | x | 91
CCCC(=O)N1CCC(O)(c2cccc(F)c2)CC1 | i | 1.2 | -10 | 104 | 1 | x | 101
COc1ccc(NC(=O)c2cccc(S(=O)(=O)N3CCc4ccccc43)c2)cn1 | i | 0.99 | 6 | 27 | 6 | x | 109
O=C(Nc1cccn2ncnc12)c1ccc(Cl)cc1 | i | 0.91 | 30 | 49 | 3 | -2.7 | 103
O=C(Nc1ccccn1)c1nc(-c2ccccc2)n(-c2ccccc2)n1 | i | 0.86 | -127 | 70 | -7 | -0.8 | 109
N/C(=N\OCc1ccccc1)c1nonc1N | i | 1.1 | 7 | 149 | -8 | x | 103
O=C(Nc1ccccc1C(=O)Nc1cccnc1)c1ccccc1 | i | 0.91 | x | x | 3 | x | 109
COc1cc(CCC(=O)N2CCN(c3ncccn3)CC2)cc(OC)c1OC | i | 1 | x | x | -1 | x | 99
CCC(C)NC(=O)c1[nH]c(C)c(C(=O)OC)c1C (centres undefined) | i | 0.95 | x | x | -5 | -0.2 | 99
COc1ccc(C(=O)N2CCN(c3nc4cc(C)ccc4cc3C#N)CC2)c(OC)c1 | i | 0.72 | -10 | 149 | -5 | -1.8 | 89
CCN(CC)S(=O)(=O)c1cccc(C(=O)NCCc2ccccc2)c1 | i | 0.96 | 0 | 32 | -5 | -3.4 | x
CC(=O)N1N=C(c2ccc(C)cc2)CC1c1ccco1 (centres undefined) | i | 0.96 | 40 | 77 | -6 | x | 100
COC(=O)CNC(=O)c1cc(-c2ccncc2)nc2c(C)c(Cl)ccc12 | i | 0.96 | x | x | -2 | x | 98
Cc1ccc(C(=O)CSc2nc3ccccc3c(=O)n2-c2ccccc2)s1 | i | 1.1 | -15 | 99 | 13 | -0.9 | 114
O=C1C(C2=C(O)c3ccccc3C2=O)=Nc2ccccc21 | x | x | -440 | 97 | -12 | -0.3 | 91
O=C(O)C/C(=C\c1ccc(Cl)cc1)c1nc2ccccc2o1 | i | 1.1 | -5 | 100 | 2 | x | 99
O=C1OC(c2ccc(F)cc2)=C/C1=C\c1ccc([N+](=O)[O-])o1 | i | 1 | -169 | 55 | -2 | x | 105
COC(=O)c1ccccc1NC(=O)CSc1nc2ncccc2[nH]1 | i | 1 | x | x | -12 | x | 93
CCOC(=O)c1c(NC(=O)C2c3ccccc3Oc3ccccc32)sc(C(C)=O)c1C | i | 0.85 | 10 | 138 | -12 | -1.9 | 102
Nc1nc(SCC(=O)N2CCOCC2)n[nH]1 | i | 0.96 | x | x | -8 | x | 127
COc1ccc(C2CC(=O)N3CN(c4ccc(C)c(Cl)c4)CSC3=C2C#N)cc1OC (centres undefined) | i | 0.96 | x | x | 2 | -1.8 | 38
COc1cccc2cc(-c3csc(NC(=O)CCC(=O)NCCCN4CCC(C)CC4)n3)c(=O)oc12 | i | 0.85 | x | x | x | x | 98
O=C(Cc1ccccc1)c1c[nH]c(C(=O)NC2CCCC2)c1 | i | 0.95 | -13 | 62 | -3 | x | 105
Cc1ccc(-n2[nH]c(C)c(C=Nc3ccc(S(=O)(=O)N4CCOCC4)cc3)c2=O)c(C)c1 | i | 0.94 | -16 | 117 | 4 | -0.4 | 23
Cc1c(Br)c([N+](=O)[O-])nn1CCCC(=O)NC(C)c1ccccc1 (centres undefined) | i | 0.94 | 33 | 139 | -1 | x | 101
COc1ccc(/C=C/C(=O)N2CCCc3ccccc32)cc1 | i | 0.91 | -1 | 120 | -10 | -0.5 | 105
Cc1ccc2cc(CN(C)S(C)(=O)=O)c(=O)[nH]c2c1 | i | 0.97 | -64 | 147 | -6 | x | 112
S=C(Nc1ccccc1)N1CCCCC1 | i | 0.87 | x | x | -9 | -2.1 | 104
CCCC(=O)Nc1c2c(nn1-c1ccc(OC)cc1)CS(=O)C2 (centres undefined) | x | x | 16 | 106 | -8 | -1.6 | 121
CCCC(=O)N(c1ccc(C(=O)O)cc1)c1nc(-c2ccccc2)c(C)s1 | i | 1.1 | x | x | 3 | x | 101
O=C(O)COc1ccccc1/C=N/NC(=O)c1cc(-c2ccccc2)nc2ccccc12 | i | 0.87 | x | x | x | x | 92
CC(c1ccon1)N(C)C(=O)c1ccc(OC2CCN(C(=O)C3CC3)CC2)cc1 (centres undefined) | i | 0.89 | x | x | 0 | x | 102
CCCS(=O)(=O)N1CCCC(C(=O)NCCCOCC)C1 (centres undefined) | i | 1.1 | x | x | 5 | -2.9 | 106
CCOC(=O)Cc1c[nH]c2ccccc12 | i | 1.1 | x | x | 0 | -2.2 | 110
CCOC(=O)c1c(-c2ccccc2)csc1NC(=O)c1cc(S(=O)(=O)N2CCOCC2)ccc1C | i | 1 | -78 | 116 | 3 | -0.1 | 95
CSc1ncccc1C(=O)OCc1ccccc1 | i | 0.96 | -23 | 45 | -8 | -1.4 | 108
COc1ccc(-c2cn3cc(Cl)ccc3n2)cc1OC | i | 0.84 | x | x | -10 | 0.4 | 88
O=C(O)c1ccc(CSCc2c(F)cccc2Cl)o1 | i | 1.1 | x | x | -6 | -0.5 | 104
CCC(C)NS(=O)(=O)c1ccc(S(=O)(=O)N(CCc2ccc(OC)c(OC)c2)Cc2cccs2)cc1 (centres undefined) | i | 0.87 | -13 | 81 | 5 | -1.0 | 112

Exported with each value named: entries from further up
CCOC(=O)c1c(-c2ccccc2)csc1NC(=O)c1cc(S(=O)(=O)N2CCOCC2)ccc1C
- HSV augment: i
- HSV augment primary fold: 1
- INS promoter inh: -78
- INS promoter inh cell count: 116
- PKD1 kinase inh: 3
- GALR2 ag: -0.1
- RGS16-Gao: 95
CSc1ncccc1C(=O)OCc1ccccc1
- HSV augment: i
- HSV augment primary fold: 0.96
- INS promoter inh: -23
- INS promoter inh cell count: 45
- PKD1 kinase inh: -8
- GALR2 ag: -1.4
- RGS16-Gao: 108

Source: PubChem

This is a random part of the collection. Share with any hit: about 1.1%.
